Tgondii IFNg = T. gondii growth inhibition under IFN-gamma. Toxoplasma gondii growth in IFN-gamma-treated host cells; stronger effect = lower value; reference of the scale not given here. activity change, negative = inhibition, %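 (about 20 µM by stock and volumes)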. actives 3.8% (n = 69,000);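 active = below -70%; inconclusive = fit judged invalid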;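 also: host cells are HeLa cells infected with Toxoplasma gondii; parasite growth read as luciferase light; one replicate is shown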
* = called active by the depositor; i = inactive; ? = inconclusive; & = joins results of further samples.

Preview (four entries):
SMILES | Tgondii IFNg
Cc1ccccc1CN1CCCC(c2nn(C)c(=O)n2-c2ccccc2)C1 (stereo not drawn) | -7.6
Cc1ccc(CNC(=O)CN2C(=O)CCc3cc(S(=O)(=O)N4CCC(C)CC4)ccc32)cc1 | -6.3
COC(=O)c1cc(C)nc2c1c(=O)nc(SCc1nc(-c3ccc(Cl)cc3)oc1C)n2C1CC1 | -24.9
Cc1nn(CC(=O)N2CCCC3(CNC(=O)O3)C2)c(=O)c2ccccc12 (stereo not drawn) | 11.4

All compounds of this part, repeating the preview:
SMILES | Tgondii IFNg
Cc1ccccc1CN1CCCC(c2nn(C)c(=O)n2-c2ccccc2)C1 (stereo not drawn) | -7.6
Cc1ccc(CNC(=O)CN2C(=O)CCc3cc(S(=O)(=O)N4CCC(C)CC4)ccc32)cc1 | -6.3
COC(=O)c1cc(C)nc2c1c(=O)nc(SCc1nc(-c3ccc(Cl)cc3)oc1C)n2C1CC1 | -24.9
Cc1nn(CC(=O)N2CCCC3(CNC(=O)O3)C2)c(=O)c2ccccc12 (stereo not drawn) | 11.4
COCC1CC2(CCN(C(=O)COc3ccccc3)CC2)CO1 (stereo not drawn) | -64.8
COc1cccc(-c2nc3c(s2)N(C(C)C)C(C(=O)NCCN(C)C)C3)c1 (stereo not drawn) | 3.3
CCOC(=O)Cc1ccc(NC(=O)N2CCC3(CC2)Nc2cc(OC)ccc2-n2cccc23)cc1 | 199.1
C[C@@H](NC(=O)C[C@H]1CC[C@H]2[C@@H](COC[C@@H](O)CN2Cc2ccc(C(F)(F)F)cc2)O1)c1ccccc1 | -5.3
O=C(CSc1nc2ccccc2c(=O)n1Cc1ccccc1)N1CCCC1 | -12.6
COCC12CCCOC1CCN(c1nnc(C)s1)C2 (stereo not drawn) | 0.2
CC1CCN(c2ncc(-c3cncn3C(CCN(C)C)c3ccccc3)cn2)CC1 (stereo not drawn) | -27.5
Cc1ccc2c(c1C)-n1cccc1C1(CCN(C(=O)CC(C)C)CC1)N2 | 17.5
Cc1cc(N2CCN(Cc3ccccc3)CC2)nc(-c2cccnc2)n1 | -37.8
CC1=CC2(O)OCCN(CCO)C2=CC1=O (stereo not drawn) | 40.0
O=C(NCCCCc1ccccn1)c1ccccc1C1CCNC1 (stereo not drawn) | 0.8
CCN1c2cc(C)ccc2-n2cccc2C12CCN(C(=O)Nc1cccc(Cl)c1C)CC2 | -28.1
CNC[C@@H]1OCc2cnnn2CCCC(=O)N([C@@H](C)CO)C[C@H]1C | 72.1
CC(C)NC(=O)N1Cc2nccn2CC(COc2cccnc2)C1 (stereo not drawn) | 8.8
Cc1ccc2nc(C)c(C(=O)N3CCOC(CCN)C3)cc2c1 (stereo not drawn) | 8.2
Cc1cc2c(cc1C(=O)N1CCC(O)(CN(C)C)C1)OCCO2 (stereo not drawn) | 18.4
CCOc1ccc(-c2nc(CSc3nc4c(=O)[nH]cnc4n3C)c(C)o2)cc1OC | -11.8
Cc1noc(C)c1S(=O)(=O)N(C)C[C@@H]1OCCCC[C@H](C)Oc2ccc(NS(=O)(=O)c3cn(C)cn3)cc2C(=O)N([C@@H](C)CO)C[C@H]1C | ?
CNC(=O)C[C@@H]1C[C@@H]2CN(C(=O)N3CCCC3)C[C@H]2O1 | -6.8
O=C(c1cccnc1)N1CC(=O)N2[C@H](CO)[C@@H](c3ccc(-c4ccccc4F)cc3)[C@H]2C1 | 12.4
CC1CCN(c2cncnc2-n2cc(NC(=O)C3CCCC3)cn2)CC1 | -35.7

The results go on:
SMILES | Tgondii IFNg
OCc1cc2ncnc(Nc3ccc(O)c(Br)c3)c2cc1CO | -69.7
Cc1ccc(NC(=O)CN2C(=O)CCc3cc(S(=O)(=O)N4CCC(C)CC4)ccc32)cc1Cl | -102.6*
Cn1sc(=O)c2cc(S(=O)(=O)Oc3ccc(C(C)(C)C)cc3)ccc21 | -69.9
CN(C)CC1CN(S(=O)(=O)c2cccs2)Cc2nccn2C1 (stereo not drawn) | -3.3
COc1ccc(-c2ccccc2OC(C)C(N)=O)c(OC)c1 (stereo not drawn) | 10.4
COc1ccc(/C=C/CN2CCCCC2c2ccccn2)cc1 (stereo not drawn) | 19.9
O=C1CC2(CCN(C(=O)C/C=C/c3ccccc3)CC2)CN1 | 7.8
Oc1cccc(-c2cn(CC3(c4cccc(F)c4)CCOCC3)nn2)c1 | 0.2
O=C(C[C@H]1CC[C@H]2[C@@H](COC[C@@H](O)CN2Cc2nccs2)O1)NCc1ccccc1Cl | 26.8
CC(C)(C)c1csc(-c2ccc(-c3ccccn3)s2)n1 | 225.9
S=C1SCN(Cc2ccccc2)CN1Cc1ccccc1 | 68.9&17.4
COc1ccc(C)cc1NC(=O)c1c(O)c2cccnc2[nH]c1=O | 5.9
CCN(Cc1cnc(-c2cccc3ccccc23)nc1)C1CCS(=O)(=O)C1 (stereo not drawn) | 7.1
CCOc1nc(Nc2ccc(C3Nc4ccccc4O3)cc2)nc(OCC)n1 (stereo not drawn) | -0.7
CCc1ccccc1NC(=O)CN1C(=O)CCc2cc(Br)ccc21 | -42.2
CCOC(=O)c1nc(N(Cc2cccs2)C2CCCC2)c2ccccc2n1 | -75.7*
CCc1nc(CN2CCN(CCn3cncn3)CC2)c(C)[nH]1 | -2.4
Cc1c(C(=O)NCCC2CCCN(C)C2)[nH]c2ccc(F)cc12 (stereo not drawn) | -8.7
CCCNC(=O)N(C)C[C@@H]1Oc2cc(C#C[C@@H](C)O)ccc2S(=O)(=O)N([C@H](C)CO)C[C@H]1C | -37.7
O=C(Cc1ccccc1)N1CCC2(CC1)Nc1ccc(Cl)cc1-n1cccc12 | 60.7
CCOCC1CC2(COCCN2S(=O)(=O)c2cccc(C)c2)CO1 (stereo not drawn) | 72.9
Cc1nnsc1CN(C)Cc1ccc(-n2cncn2)cc1 | 4.8
COC(=O)[C@@H]1C[C@H](NS(=O)(=O)c2cc(OC)ccc2OC)CN1C | 0.5
O=C1CC2(CCc3ccccc32)C(=O)N1CN1CCSCC1 (stereo not drawn) | -48.8
Cc1nn(C)cc1C(C)n1ccnc1-c1ccccc1Cn1cccn1 (stereo not drawn) | 4.9

Reformatted as tab-separated lines: part of the list above.
SMILES	Tgondii IFNg
Cc1ccc(NC(=O)CN2C(=O)CCc3cc(S(=O)(=O)N4CCC(C)CC4)ccc32)cc1Cl	-102.6*
Cn1sc(=O)c2cc(S(=O)(=O)Oc3ccc(C(C)(C)C)cc3)ccc21	-69.9

(more compounds)
SMILES | Tgondii IFNg
Cn1ccnc1-c1ccc(NCCc2cnn(-c3ccccc3)c2)nn1 | 55.1
Cc1cc2nc(CNC(=O)c3cc(CN4CCOCC4)on3)[nH]c2cc1C | 5.7
Cc1ccc(N2CC[C@@H]3[C@@H]2CCN3C(=O)c2occc2C)nn1 | -37.9
COc1ccccc1CNC(=O)CC1N=C2c3ccccc3N=C(SCC#N)N2C1=O (stereo not drawn) | 9.1
c1ccc(-c2nc(-c3ccco3)[nH]c2-c2ccccc2)cc1 | -22.3
CCOC(=O)c1c(NC(=O)Nc2ccc(C)cc2)sc2c1CCN(C(=O)OCC)C2 | -97.2*
CCC(=O)Nc1nnc(SCC(=O)c2ccc3c(c2)Cc2ccccc2-3)s1 | 0.3
CCc1cccc(NC(=O)CN2C(=O)CCc3cc(S(=O)(=O)N4CCOCC4)ccc32)c1 | -54.8
COc1ccc(NC(=O)N2CCC(c3nc(C(=O)N(C)C)c(C)o3)CC2)cc1OC | 87.6
Nc1c2c(nc3cccc(F)c13)OCCC2 | -2.7
Cc1cccc2oc(CNC(=O)CSCc3ccccc3Cl)nc12 | -2.9
CCS(=O)(=O)N1CCc2onc(Cn3c(C)ccc3C)c2C1 | -2.4
COc1cc2c(cc1CNC(=O)C1CC(=O)N(CC(C)C)C1)CCC2 (stereo not drawn) | 2.7
COc1ccc2ccc(OCc3nc(C(=O)N4CCOCC4CO)co3)cc2c1 (stereo not drawn) | 7.6
CO[C@@H]1CN(C)C(=O)c2cc(NC(=O)C3CC3)ccc2OC[C@H](C)N(Cc2cc(F)ccc2F)C[C@@H]1C | -59.4
CC(C)c1cc(C(=O)O)nc2ncnn12 | -27.7
N#C[C@H]1[C@@H](c2ccccc2-c2cccc(F)c2)[C@@H](CO)N1C(=O)C1CC1 | 19.5
COCCN(Cc1cnn(C)c1)C(=O)c1cccc(Cl)c1Cl | 1.8
Cc1cc(C)cc(C(=O)NCCc2csc(-c3cccc(C)c3)n2)c1 | i
COc1cccc(S(=O)(=O)N2C[C@H](O)COC[C@H]3O[C@@H](CC(=O)N4CCN(c5ccccc5)CC4)CC[C@@H]32)c1 | 0.6
COc1ncccc1C(=O)N1CCCC2(CC1)CNC(=O)O2 (stereo not drawn) | -2.8
COCCO[C@H]1CCN(C(=O)c2cccs2)[C@H]1Cc1cnn(C)c1 | -3.7
CSc1cccc(CN2CCN(C)C3(CCN(C(=O)N(C)C)CC3)C2)c1 | -4.1
CCCNS(=O)(=O)c1cc2c3c(c1)CCC(=O)N3CCC2 | 148.5
CO[C@H]1CN(C(=O)c2ccccc2Oc2ccccc2)CC[C@H]1N | -14.1

Continuation:
SMILES | Tgondii IFNg
O=C(OCC1CCNCC1)c1ccc2c(c1)OCO2 | -18.9
COc1ccc(CN2CCC(N3CCCC(C(=O)N4CCCC4)C3)CC2)cc1 (stereo not drawn) | -3.6
CCNC(=O)c1cc2c(c(-c3cccc(-c4ccccc4F)c3)n1)[C@H](CCO)N(C(=O)CC1CC1)C2 | 0.2
COc1ccccc1CN1CC[C@@H]2[C@H]1c1cc(C3=CCCCC3)ccc1N[C@@H]2CO | -66.7
COc1ccc(-c2ccc(=O)n(C[C@H](C)NC(=O)c3ccc4c(c3)n(C)c(=O)n4C)n2)cc1 | 53.8
CCc1onc(C)c1C1CCCN1C(=O)Cn1nc(C(F)(F)F)c2c1CCCC2 (stereo not drawn) | 0.0
Fc1cccc(CN2CCN(Cc3ccc(C4CCCCO4)s3)CC2)c1 (stereo not drawn) | -6.9
Cc1ccccc1NC(=O)N1CCCC(c2n[nH]c(=O)n2-c2ccccc2)C1 (stereo not drawn) | -2.0
CN(Cc1ccco1)[C@H]1CN(C(=O)c2ccccn2)C2CCCOC21 (stereo partly drawn) | 3.7
O=C(Cc1ccccn1)N[C@@H]1CC[C@H](CCNS(=O)(=O)c2cccc(F)c2)O[C@@H]1CO | 105.5
COC[C@@H]1CCC[C@]12CN(C(=O)c1ccno1)CCO2 | -45.1
COc1cc2c(cc1-c1nccn1CCn1nc(C)cc1C)CCC2 | -1.0
COc1ccccc1C#Cc1ccc([C@H]2[C@@H](CO)N3CCCCN(C(=O)C4CCC4)C[C@H]23)cc1 | -62.1
C=CCN1C(=O)CC2C1CCN2C(=O)c1cscn1 (stereo not drawn) | -8.4
C[C@H](CO)N1C[C@H](C)[C@@H](CN(C)S(=O)(=O)c2ccccc2F)Oc2ncc(/C=C/c3ccccc3)cc2C1=O | -13.5
COc1cccc(-c2nn(-c3ccccc3)cc2CN2CCN3CCCC3C2)c1 (stereo not drawn) | -7.4
C[C@@H]1CN([C@@H](C)CO)C(=O)CCCn2cc(nn2)CO[C@H]1CN(C)S(=O)(=O)c1ccc(-n2cccn2)cc1 | -113.5*
Cc1oc(-c2ccccc2)nc1Cn1nnc(C(=O)Nc2ccc(F)c(F)c2)c1C | 7.7
CCn1ccnc1CN(C)Cc1nc(-c2sccc2C)oc1C | -4.2
COc1cc(C)c(-c2csc(NC(=O)c3cc(C(C)C)c4nncn4n3)n2)cc1C | -59.2
COc1cccc(C(=O)N2CCC(C(=O)Nc3cccc(Cn4cccn4)c3)C2)c1 (stereo not drawn) | -7.0
Cc1ccc2c(C(=O)N3CCC(=O)NCC3C)cc(C)nc2c1 (stereo not drawn) | 63.0
O=C(NCCCN1CCOCC1)c1ccccn1 | 6.1
CN(C)C(=O)C1CC2CN(Cc3cnn(C)c3)CC1O2 (stereo not drawn) | -1.1
Cc1ccc2[nH]c(C(=O)N3CCCC3)c(NC(=O)c3ccc(Cl)cc3)c2c1 | 13.0

Going on with the list:
SMILES | Tgondii IFNg
COC(=O)c1ncn2c1C(=O)OC(COc1ccccc1)C2 (stereo not drawn) | 9.9
CCOC[C@H]1CCC2C(CCN2C(=O)c2ccc3c(c2)OCO3)O1 (stereo partly drawn) | -3.4
CCCCNC(=O)c1ccc(-c2ccccc2CO)o1 | 44.9
COc1cc(N2CCO[C@H]3[C@@H](Oc4ncccc4F)CC[C@H]32)ncn1 | -30.6
Cc1ccccc1NC(=O)CC(=O)NC1(c2ccccc2Cl)CC1 | -15.4
Cc1ccc(C2=NOC(=O)/C2=C\C=C\c2ccccc2)cc1 | 1.2
Cc1cc(C)cc(Nc2nc3c([nH]2)c(=O)n(C)c(=O)n3C)c1 | 7.0
COc1ccc2c3c(n(C)c2c1)[C@H](CO)N(C(=O)c1ccccn1)CC31CN(C(=O)Cc2ccccc2)C1 | 60.8
CC(=O)Nc1ccc(OC(C)=O)cc1 | 5.0&24.9
COc1cccc(CNC(=O)Cn2ncc3c(N4CCCC4)ncnc32)c1 | -31.8
CN1CCN(CCC(=O)N2CCN(c3nsc4ccccc34)CC2)CC1 | 25.2
CCn1cc(CN2CCCC(OCc3cccnc3)C2)cn1 (stereo not drawn) | -7.5

Fetched by compound from the entries so far:
SMILES | Tgondii IFNg
CC(=O)Nc1ccc(OC(C)=O)cc1 | 5.0&24.9
CCCCNC(=O)c1ccc(-c2ccccc2CO)o1 | 44.9
CN1CCN(CCC(=O)N2CCN(c3nsc4ccccc34)CC2)CC1 | 25.2

Among those listed so far, these contain a CF3 group:
SMILES | Tgondii IFNg
C[C@@H](NC(=O)C[C@H]1CC[C@H]2[C@@H](COC[C@@H](O)CN2Cc2ccc(C(F)(F)F)cc2)O1)c1ccccc1 | -5.3
CCc1onc(C)c1C1CCCN1C(=O)Cn1nc(C(F)(F)F)c2c1CCCC2 (stereo not drawn) | 0.0

Screening data: PubChem BioAssay, Broad Institute

An excerpt (hit frequency here may not be typical).
